Source: PubChem
Vaccinia Venus – inhibitors of vaccinia virus (Venus reporter). Vaccinia virus Venus reporter expression, fluorescence. Potency, µM (top dose mostly 36.5 µM), without a hit: top-dose activity change, negative = inhibition, actives largely listed as inhibitors. hit rate 0.46% among 330,000. AID 720580; active means well fitted inhibition curve with a large enough effect; inconclusive means small, poorly fitted or top-dose-only effect; inactive means no such curve, though single readings can be large or run the other way; tested in A549 cells; further: nearly all actives have a fitted effect of over 30% in size; inactives centre near -10
VACV mCherry inh – inhibitors of vaccinia virus infection (mCherry reporter signal); Vaccinia virus mCherry reporter infection, fluorescence; about a quarter of the inactives have no number; Potency, µM (top dose mostly 36.5 µM), for inactives: at the top dose activity change, negative = inhibition, most hits filed as inhibitors; hit rate 0.63% among 310,000; AID 720579; active = well fitted inhibition curve with a large enough effect; inconclusive = small, poorly fitted or top-dose-only effect; inactive = no such curve, though single readings can be large or run the other way; tested in A549 cells; further: nearly all actives have a fitted effect of over 35% in size; inactives centre near -10
* hit, by the source's call; i = inactive; ? = inconclusive; / = not tested or not shown; & = joins results of further samples; [ ] = remark or other dose. On the % scale 0 is the no-effect control and ±100 the full control effect; potency means the concentration at half of the fitted maximal effect.

No.	mol	Vaccinia Venus	VACV mCherry inh
1	Cc1cc(S(=O)(=O)Nc2ccc(C(=O)NCc3ccncc3)cc2)ccc1F	-22.2%	-3.8%
2	COc1ccc(NC(=O)CSc2nnc(-c3ccncc3)o2)c([N+](=O)[O-])c1	-3.8%	-12.9%
3	CCCCn1c(N)c(N(CC(C)C)C(=O)CCC2CCCCC2)c(=O)[nH]c1=O	-12.0%	i
4	CC(C)C[C@H]1CNC(=O)C(=O)N1C[C@@H]1CCCN1C[C@H](CC(C)C)N1C[C@H](Cc2ccccc2)N(CCc2ccccc2)C(=O)C1=O	-7.4%	-3.1%
5	COc1ccc(CN2C(=O)CC(Cc3ccc(C)cc3)C2=O)cc1OC (stereo not drawn)	-14.4%	-15.6%
6	CCOC(=O)c1sc(NC(=O)c2ccc(S(=O)(=O)N3CCCCCC3)cc2)nc1-c1ccccc1	-6.4%	-3.2%
7	Cc1ccccc1NC(=O)COc1coc(CN2CCCc3ccccc32)cc1=O	-22.6%	i
8	CCO[C@H]1OC(C(=O)N2CCN(Cc3ccc4c(c3)OCO4)CC2)=C[C@@H](c2ccc(Br)cc2)[C@@H]1CCCO	?	?
9	Cc1ccc(NC(=O)Nc2cccs2)c(Cl)c1	?	?
10	CNc1oc(-c2ccccc2Cl)nc1P(=O)(c1ccccc1)c1ccccc1	-23.7%	-2.8%
11	Cc1ccc2ccc3ccc(C)nc3c2n1	-16.9%	-23.3%
12	Oc1ccccc1C=NC1CCCCC1N=Cc1ccccc1O (stereo not drawn)	-5.8%	-14.6%
13	O=P(C(c1ccc2c(c1)OCO2)N1CCOCC1)(N1CCOCC1)N1CCOCC1 (stereo not drawn)	-11.5%	i
14	O=C1NCCCC1C(=O)N/N=C/c1ccccc1[N+](=O)[O-] (stereo not drawn)	17.3%	-20.6%
15	O=C(CSc1nnc(SCc2ccccc2)s1)N/N=C/c1ccc(Cl)cc1Cl	0.9%	-10.8%
16	Cc1ccccc1NC(=O)NCc1ccco1	-2.4%	-9.0%
17	NC(=O)c1nc(-c2ccc(F)c(F)c2)nc2c1[nH]c(=O)n2-c1cccc(Cl)c1	-19.6%	-22.4%
18	CCSc1nnc2c(n1)OC(c1ccc(OC)c(OC)c1)N(C(C)=O)c1ccccc1-2 (stereo not drawn)	-0.8%	-2.6%
19	CCCCNC(=O)c1cccc(-n2cnc3cccnc32)c1C	-9.5%	-11.8%
20	COc1ccc(CCN2CC(C(=O)OCC(=O)N(C)Cc3ccccc3)CC2=O)cc1OC (stereo not drawn)	-15.9%	-13.4%
21	Nc1nc(CN2CCc3ccccc3C2)nc(Nc2ccccc2)n1	-16.3%	-2.0%
22	COc1ccc2nc(COC(=O)c3ccco3)c(C(C)=O)[n+]([O-])c2c1	-18.3%	/
23	CCCCCCCCN1C(=O)[C@H](CC(=O)NCc2ccc(C)o2)C[C@@]2(C(=O)OCC)CCC=C12	?	-22.5%
24	CCCCN(CC)CCNC(=O)C1CCN(S(=O)(=O)c2cccc3nsnc23)CC1	-12.3%&-12.4%	-13.1%
25	CC1(C)C2([N+](=O)[O-])CNCC1([N+](=O)[O-])CNC2	-15.6%	/
26	CCCCCCCC1(C)NC(=O)N(CC(=O)Nc2cc(C)on2)C1=O (stereo not drawn)	-2.9%	-2.9%
27	Cc1cc(C)cc(NC(=O)C(=O)NCC(c2ccc3c(c2)OCO3)N2CCN(C)CC2)c1 (stereo not drawn)	-12.9%	-24.1%
28	COc1ccc(-c2c(C(F)(F)F)nn(C)c2NC(=O)c2cccnc2)cc1	4.6%[7.34 µM]	i[7.34 µM]
29	N/C(=N\C(=S)Nc1ccccc1)c1ccccc1	-23.0%	i
30	COc1ccc(C=C(c2ccc(OC)cc2)c2ccc(OC)cc2)cc1	-14.4%	/
31	C#CCOCCOCCOCCNc1nc(N2CCN(C(=O)[C@H]([C@@H](C)CC)n3cc([C@@H](N)CO)nn3)CC2)nc(N2CCN(C(=O)[C@H]([C@@H](C)CC)n3cc([C@@H](N)Cc4ccc(O)cc4)nn3)CC2)n1	-6.7%	-8.0%
32	CC(=O)NC(Cc1ccc(O)cc1)C(=O)NN (stereo not drawn)	0.1%	-10.4%
33	O=C(Nc1ccc2c(c1)C(=O)NC2=O)c1ccccc1Cl	2.3%	-17.7%
34	CCOC(=O)c1sc(/N=C/Nc2nc(C)c(C(=O)OCC)s2)nc1C	-20.4%	/
35	O=C1Nc2ccccc2OCc2c1cccc2[N+](=O)[O-]	-13.3%	-20.6%
36	CCOc1ccc(C(=O)N2CCN(c3ccccn3)CC2)cc1OCC	-12.9%	-6.0%
37	CC1CN(C(=O)c2ccc(-c3ccccc3Cl)o2)CC(C)O1 (stereo not drawn)	-27.4%	-24.7%
38	CC1=C(C(=O)N2CCOCC2)C(c2ccc(Br)cc2)NC(=S)N1c1ccccc1 (stereo not drawn)	-0.5%	-7.9%
39	COc1ccc2cc(C(c3nnnn3C3CCCC3)N3CCCCCC3)c3nnnn3c2c1 (stereo not drawn)	-11.4%	i
40	Cc1ccc(NP(=O)(Nc2ccc(C)cc2)Nc2ccc(C)cc2)cc1	-29.9%	i
41	CCCCCNc1nc(-c2ccccc2)nc(-n2ccnc2)n1	-11.7%	-3.8%
42	CCOc1cccc(C2c3c(-c4cc(C)ccc4O)n[nH]c3C(=O)N2Cc2ccco2)c1 (stereo not drawn)	-14.6%	-11.5%
43	CC(C)(C)C(=O)CSc1nc2ncc(Br)cc2[nH]1	?	/
44	Cc1nc(Cc2nnc(SCC(=O)N3CCN(c4ccccc4)CC3)o2)cs1	-6.7%	-15.8%
45	Cc1cc(C)c2c(=O)cc(C(=O)Nc3ccc(S(=O)(=O)Nc4nc(C)cc(C)n4)cc3)oc2c1	-1.7%	2.5%
46	Cc1nnc(SCC(=O)N2CCc3ccccc32)s1	-4.3%	-11.3%
47	CCCC(NCC(=O)Nc1cc(S(=O)(=O)N2CCOCC2)ccc1OC)c1ccccc1 (stereo not drawn)	-22.1%	-7.9%
48	Cc1ccc(-c2ccc(CCC(=O)O)n2-c2ccc(C(N)=O)cc2)cc1	-8.8%	-1.7%
49	COc1ccccc1CCNC(=O)CCc1c(C)c2cc3c(C)coc3cc2oc1=O	-5.4%	-11.1%
50	CCc1ccc(Cn2ncc3c(C(=O)O)cc(C)nc32)cc1	5.4%	3.8%

Carrying on:
No.	mol	Vaccinia Venus	VACV mCherry inh
51	CCC(CC)NC(=O)CO/N=C/c1ccc(Cl)cc1Cl	-7.4%	-0.6%
52	COc1ccc(S(=O)(=O)n2c(N)nc3ccccc32)cc1	-14.6%	-0.4%
53	Cc1ccc(Cl)cc1NC(=O)CN1C(=O)CSc2ccc(S(=O)(=O)N3CCCC3)cc21	-14.6%	-5.5%
54	Cn1cccc1C(=O)OCC(=O)c1ccc(Br)s1	-7.8%	i
55	COc1ccccc1N1CCN(S(=O)(=O)CC23CCC(CC2=O)C3(C)C)CC1 (stereo not drawn)	-9.4%	-13.5%
56	O=C(CSc1nnc(C2CC2)n1CC1CCCO1)Nc1ccccc1Cl (stereo not drawn)	-6.7%	-20.3%
57	Cc1ccc(CN2CC(C(=O)N3CC(C)CC(C)C3)CC2=O)cc1 (stereo not drawn)	-9.3%	-3.3%
58	Cc1nn(-c2ccc(C(=O)OC(C)C)cc2)c(C)c1[N+](=O)[O-]	-17.9%	i
59	Cc1n[nH]c(C)c1Cc1ccc(C(=O)O)cc1	-14.3%	i
60	Cc1ccc(-n2c(C)cc(C(=O)CN3CCOCC3)c2C)cc1	-18.0%	-16.0%

5 of the compounds above, screen by screen.
(52) COc1ccc(S(=O)(=O)n2c(N)nc3ccccc32)cc1
(53) Cc1ccc(Cl)cc1NC(=O)CN1C(=O)CSc2ccc(S(=O)(=O)N3CCCC3)cc21
(54) Cn1cccc1C(=O)OCC(=O)c1ccc(Br)s1
(55) COc1ccccc1N1CCN(S(=O)(=O)CC23CCC(CC2=O)C3(C)C)CC1 (stereo not drawn)
(56) O=C(CSc1nnc(C2CC2)n1CC1CCCO1)Nc1ccccc1Cl (stereo not drawn)

entry no.	52	53	54	55	56
Vaccinia Venus	-14.6%	-14.6%	-7.8%	-9.4%	-6.7%
VACV mCherry inh	-0.4%	-5.5%	i	-13.5%	-20.3%

Further records:
No.	mol	Vaccinia Venus	VACV mCherry inh
61	O=C(CCC(=O)Nc1ccccc1)NNS(=O)(=O)c1ccccc1[N+](=O)[O-]	-5.3%	-0.2%
62	Cc1ccc(NC(=O)CSc2nc(O)cc(=O)n2C)cc1	6.6%	-9.0%
63	COc1ccccc1NC(=O)COC(=O)c1ccc2c(c1)OCCO2	-14.4%	i
64	Cn1cnnc1SCC(=O)OCN1C(=O)c2ccccc2C1=O	-6.1%	/
65	Cc1cc(/C=C2/NC(=O)NC2=O)c(C)n1-c1ccc(N2CCOCC2)cc1	-4.1%	-27.4%
66	COc1ccc(C)cc1Cn1nnc2ccccc21	-13.6%	-7.0%
67	Cc1nc2ccccn2c1C(=O)NC1CCCC1	-3.0%	i
68	O=C(Cc1ccccc1)NN1C(=O)c2ccccc2C1=O	-6.9%	-14.0%
69	COc1ccc(C)cc1-n1nnnc1SCc1cn2ccsc2n1	-11.1%	/
70	COc1ccc(Nc2nc(N)c3ccccc3n2)c(OC)c1	-10.9%	-12.6%
71	COc1ccc(/C=C2\SC(=S)N(CCC(=O)Nc3ccc(O)cc3)C2=O)cc1	15.7%	-15.3%
72	CCOC(=O)C1=C(c2ccccc2)N2CCS(=O)(=O)N=C2S1	-7.4%	-0.6%
73	Cc1ccc(NC(=O)CSc2ccccn2)cc1S(=O)(=O)N1CCOCC1	-0.9%	-10.1%
74	C=CCNc1nc(NCc2ccc(NC(C)=O)cc2)c2sc(-c3ccccc3)cc2n1	15.8µM*	-4.8%
75	CCC1CCc2sc(C(=O)N(C)CC(=O)Nc3ccc(N4CCOCC4)cc3)cc2C1 (stereo not drawn)	?	?
76	CCCc1c(C)nc(-c2ccc(C)cc2)nc1OC(=O)N(C)C	-5.9%[7.34 µM]	i[7.34 µM]
77	Nc1ccc(C=O)cc1	-10.9%	-2.7%
78	O=C(Nc1ccccc1)N1CCCN(c2nccc(C(F)(F)F)n2)CC1	-17.5%	-3.9%
79	CCOc1ccc(C(=O)Nc2ccc(-c3nc4cc(CC)ccc4o3)cc2)cc1	-27.1%	?
80	CN(CC(=O)Nc1ccc(F)c(F)c1F)C(=O)CC1CCCCC1	-11.8%	i
81	C[C@@]12CCC(=O)C[C@@H]1CC[C@@H]1[C@@H]2CC[C@]2(C)C(=O)CC[C@@H]12	-29.3%	i
82	COc1cc(-c2cc(OC)c(O)c(OC)c2)cc(OC)c1O	-3.1%	?
83	CC(C)CC(c1nnnn1Cc1ccccc1)N1CCC(C(N)=O)CC1 (stereo not drawn)	-22.2%	-18.6%
84	Cc1ccc(NC(=O)Cn2c(=O)n(CC(=O)NCCc3ccccc3)c(=O)c3ccccc32)cc1C	?	?
85	Cc1ccc(CNC(=O)c2cccc3c2C(=O)c2ccc(N4CCCCC4)cc2S3(=O)=O)cc1	-18.2%	?
86	O=C(Nc1ccc(F)cc1)c1c(Cl)nc2ccccn12	1.7%	-6.6%
87	COCCNC(=O)COc1ccccc1Cl	0.4%	/
88	N#CCCN1CCN(Cc2ccccc2)CCC1=O	-1.7%&-17.5%	i
89	COc1ccccc1C(=O)NC(=O)COC(=O)c1nc(Cl)ccc1Cl	-14.1%	i
90	COc1ccc(C(=O)O)cc1S(=O)(=O)Nc1ccc2cn[nH]c2c1	-8.1%	-11.6%
91	COc1ccccc1OCCC(=O)OCC(=O)Nc1cccc(Br)c1	3.6%	-3.9%
92	CCOC(=O)C1CCN(C(C)C(=O)c2c(C)[nH]c3cc(C)ccc23)CC1 (stereo not drawn)	-22.1%	/
93	COc1ccc(-c2ccc(CCC(=O)O)n2C(C)C)cc1	-15.2%	-2.5%
94	O=C(Nn1cnc2ccccc2c1=O)c1ccc(Cl)c([N+](=O)[O-])c1	-15.3%	-25.6%
95	CNc1nc(Oc2ccc(=O)n(C)n2)nc(N2CCOCC2)n1	-7.2%&-8.7%	-1.1%
96	CCCN(CCC)Cc1c(C(=O)N/N=C/c2ccc(Br)cc2)nnn1-c1nonc1N	-13.7%	-10.3%
97	Cc1cc(=O)n2c3ccccc3n(CC(O)CN3CCCC3)c2c1C#N (stereo not drawn)	2.0%	10.9%
98	COc1ccc(OC2OC3COC(c4ccco4)OC3C(O)C2NC(C)=O)cc1 (stereo not drawn)	-7.4%	i
99	Clc1ccc2c(c1)C(c1ccccc1Cl)=NCc1nncn1-2	-7.6%	-6.8%
100	COC(CC(=O)NNC(=S)Nc1ccccc1)OC	-5.4%	-5.9%
101	CCc1noc(C)c1C(=O)NCCc1ccc(S(N)(=O)=O)cc1	-2.7%	-8.6%
102	CC(C)(O)[C@@H]1Cc2c(ccc3ccc(=O)oc23)O1	1.1%	i
103	CC1CC(C(=O)Nc2ccccc2)C(=O)O1 (stereo not drawn)	7.3%[7.34 µM]	i[7.34 µM]
104	Cc1ccc2cc(C#N)c(N3CCN(C(=O)c4cccs4)CC3)nc2c1	-12.6%	i
105	COc1ccc(N2CCN(C(=O)C3Cc4ccccc4CN3C(=O)c3ccccc3)CC2)cc1 (stereo not drawn)	-3.8%	-7.4%
106	CC(=O)Nc1cc(C(=O)N2CCC3(CC2)OCCO3)ccc1Sc1ccc(F)cc1	-7.5%	i
107	CO/N=C/NC(=O)C1=NOC(CNc2ncc(C(F)(F)F)cc2Cl)C1 (stereo not drawn)	-9.3%	6.9%[1.46 µM]
108	Cc1ccc(F)c(C2=CC(=O)C[C@H](c3ccc(F)cc3)C2)c1	-18.5%	?

No enrichment for hits, and some 0.86% of all compounds hit somewhere here.
